# Mtb growth – Confirmatory growth inhibition assay against Mycobacterium tuberculosis H37Rv, potency (AID 1949); 100,000 tested, 1.6% active; most inactive calls were filed without a number and no value below 0 was filed; inhibition, % at 10 µg/mL, or IC50 in µg/mL where a hit was titrated;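 active = confirmed in a dose series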;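 also: bacteria grown 7 days with compound before Alamar blue readout; 0% = untreated bacteria and 100% = reference antibiotic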
# * hit, by the source's call; i = inactive. This is a subset. The share of hits here may be higher or lower than overall.
SMILES,Mtb growth
O=S(=O)(Nc1ccc(F)c(Cl)c1)c1ccc2c(c1)OCCO2,i
Cc1nn(C)cc1CNC(=O)Nc1ccc(Br)cc1Cl,i
COc1ccc(CCNC(=O)c2ccc(C(C)C)cc2)cc1,i
COc1ccc(OC)c(C2C(C(=O)Nc3cccnc3)=C(C)NC3=C2C(=O)CCC3)c1 (stereo not drawn),i
COc1ccc(S(=O)(=O)N2CCN(S(=O)(=O)c3ccc(Cl)cc3)CC2)cc1,i
Cc1nnc(NC(=O)c2ccccc2CCc2ccccc2)s1,2.7%
C=CCn1c(CCC(=O)O)ccc1-c1ccc(OC)cc1,i
O=C(COc1ccc(-c2nnc(N3CCOCC3)c3ccccc23)cc1)N1CCCCC1,i
O=c1oc(-c2ccco2)nc2c(Cl)cc(Cl)cc12,i
CC(C)(C)C(=O)N1CCN(c2ccc([N+](=O)[O-])c(N3CCc4ccccc4C3)c2)CC1,3.7%
COC(=O)c1cn(C(=O)c2cc(Br)ccc2Cl)c2ccccc12,0.4%
O=C(CN(c1cccc(Cl)c1)S(=O)(=O)c1ccc(Cl)cc1)Nc1ccccc1Cl,i
COC(=O)CN1C(=O)C(=O)c2cc(Br)ccc21,i
O=C1CC(SCc2nc3ccccc3[nH]2)C(=O)N1c1ccc(F)cc1 (stereo not drawn),i
S=C(NCC1CCCO1)N1CCN(CCc2ccccc2)CC1 (stereo not drawn),i
CCOc1ccc(Cl)cc1CSc1n[nH]c(C)n1,i
O=C(Nc1cccc(C(F)(F)F)c1)c1ccc(N2CCCCC2)c([N+](=O)[O-])c1,i
CCn1c(SCC(=O)NC2CC2)nnc1-c1ccc(C)cc1,i
O=C(CN1CCCCC1)N1c2ccccc2Sc2ccccc21,i
Cc1ccc(C(=O)NC2CCCCC2)cc1[N+](=O)[O-],i
Cc1c(Cl)cccc1NC(=O)C(=O)NCCN1CCOCC1,1.6%
CCn1c(=O)[nH]c2cc(C(=O)NC3CCCCC3)ccc2c1=O,i
COC(=O)Cn1cnc2sc(C)c(-c3ccc(Br)cc3)c2c1=O,i
CC(=O)Nc1nc2ccccc2n1CCN1CCCCC1,i
Cc1cccc(OC(C)C(=O)NCc2ccccc2)c1C (stereo not drawn),48.4%
CCCCC(=O)Nc1ccc(C(=O)Nc2ccc(S(=O)(=O)N3CCCC3)cc2)cc1,2.0%
O=C(CCc1ccccc1)Nc1ccc2ccccc2c1,35.4%
CC(C)Oc1cc2oc(=O)cc(-c3ccccc3)c2cc1Cl,10.7%
CCOC(=O)N1CCN(c2ncc3c(n2)CC(c2ccco2)CC3=O)CC1 (stereo not drawn),i
C=CCn1c(Cc2ccc(OC)cc2)nnc1SCC(=O)Nc1cc(C)ccc1OC,i
CCc1cc(C(=O)OC)c(NC(=S)Nc2c(C)n(C)n(-c3ccccc3)c2=O)s1,i
Cc1cc(C)n(C(=O)COc2ccc(Cl)cc2)n1,i
CCc1ccc(OCC(=O)NCc2ccc(Cl)cc2)c(Br)c1,12.4%
O=C(O)CCN1C2=C(C(=O)CCC2)C(c2ccc(OCc3ccccc3F)cc2)C2=C1CCCC2=O,i
COc1ccc(NC(=O)c2cc([N+](=O)[O-])ccc2N2CCC(C)CC2)cc1,0.0%
CCCCC(=O)Oc1ccc2c(C)cc(=O)oc2c1,i
O=C(Nc1cccc(C(=O)Nc2ccc(Br)cc2F)c1)c1ccccc1,i
Cc1ccc(N2C(=O)CC(Sc3ncccn3)C2=O)cc1C (stereo not drawn),i
CCCn1nnc(NC(=O)c2cc(Br)ccc2OC)n1,i
COc1ccc(CN2CCCC(C(=O)Nc3c(C)cccc3C)C2)cc1OC (stereo not drawn),i
CC(C)(C)c1ccc(C(=O)Nc2nonc2-c2nc3ccccc3[nH]2)cc1,i
COCCNC(=O)C(=O)NCCCO,9.6%
CCS(=O)(=O)Nc1ccc(-c2ccc(NS(=O)(=O)CC)c(C)c2)cc1C,i
CCOc1ccccc1NC(=O)CSc1ncnc2sc(C)c(C)c12,i
Cc1cccc(CN(c2cc(C)ccc2C)S(C)(=O)=O)c1,i
CCOC(=O)CSc1ncnc2scc(-c3ccc(Cl)cc3)c12,i
OC(CNC(=S)Nc1ccccc1)c1ccccc1 (stereo not drawn),2.8%
Cc1ccc(OCCCOc2ccc(C=O)cc2)cc1,4.4%
COc1ccccc1C(=O)Nc1ccc(S(=O)(=O)N2CCOCC2)cc1,i
CCCCNC(=O)Cc1ccc(C)cc1,i
CCc1cccc(CC)c1NC(=O)c1ccc(N(C)S(C)(=O)=O)cc1,i
O=S(=O)(Nc1cccc(F)c1)c1ccc2c(c1)OCCO2,i
CCC(C)NC(=O)c1ccccc1NC(=O)CN(c1ccc(OC)cc1)S(=O)(=O)c1ccc(C)cc1 (stereo not drawn),5.1%
CCNC(=S)Nc1cccc2ccccc12,i
CN(C)S(=O)(=O)N1CCN(CC(O)COc2ccc(C(=O)c3ccccc3)cc2)CC1 (stereo not drawn),1.9%
O=C1Nc2c(C(F)(F)F)cccc2C12SCCS2,i
COc1ccc(C)cc1NC(=O)c1cc(C)ccc1C,7.2%
N/C(=N\OC(=O)c1cc(Cl)ccc1Cl)c1cccnc1,2.5%
O=C(Nc1ccc(Br)cc1F)C1CCN(S(=O)(=O)c2ccc(F)cc2)CC1,i
CC(=O)c1cccc(NC(=S)NC(=O)c2cccs2)c1,i

# Sorted by count of non-hydrogen atoms (highest first): three of the compounds above.
SMILES,Mtb growth
N/C(=N\OC(=O)c1cc(Cl)ccc1Cl)c1cccnc1,2.5%
O=C1Nc2c(C(F)(F)F)cccc2C12SCCS2,i
CCCCNC(=O)Cc1ccc(C)cc1,i

# Other results.
SMILES,Mtb growth
COc1ccc(C(=O)N2CCN(S(=O)(=O)c3ccccc3)CC2)c(OC)c1,i
O=C1c2oc3ccccc3c(=O)c2C(c2ccncc2)N1c1nccs1 (stereo not drawn),i
Cc1ccccc1C1NS(=O)(=O)N=C1N (stereo not drawn),2.4%
CCOC(=O)C1CCN(S(=O)(=O)c2ccc(Cl)cc2OC)CC1,i
CCOC(=O)C1CCN(C(=O)CN(c2cc(Cl)ccc2OC)S(=O)(=O)c2ccc(C)c([N+](=O)[O-])c2)CC1,i
O=C1c2cccc3cccc(c23)C(=O)N1CCN1CCN(S(=O)(=O)c2ccc(I)cc2)CC1,i
Cc1ccc(CSc2nnc3c(n2)[nH]c2ccccc23)c(C)c1,i
COC(=O)c1cc2nc(-c3ccccc3)cc(C)n2n1,2.1%
O=c1oc(-c2cccs2)nc2scc(-c3cccs3)c12,i
COCc1cc(C)nc(SCC(=O)N2c3ccccc3SC3C=CC=CC32)c1C#N (stereo not drawn),7.5%
CCOC(=O)c1cccc(NC(=O)c2ccc3ccccc3c2OC)c1,5.2%
C#CCSc1nc(C)c2cc(OC)ccc2n1,i
Cc1nnc(Nc2cccc(C(F)(F)F)c2)c2ccccc12,i
Cc1ccc(S(=O)(=O)N2CCN(c3ccc([N+](=O)[O-])c(-n4nc(C)c5ccccc5c4=O)c3)CC2)cc1,0.7%
CCC(Oc1ccccc1)C(=O)Nc1ccc(C)cc1 (stereo not drawn),i
O=C(Cc1ccccc1)Nc1ccc(C(=O)Nc2ccccn2)cc1,i
COc1ccc(C(=O)Nc2cc(C)ccc2NC(=O)COc2ccccc2)cc1,i
CC(C)(C)c1nnc2n(c1=O)N=C(c1ccc(F)cc1)CS2,i
O=S(=O)(O)c1cccc2c(O)cccc12,i
CC(C)c1ccccc1NC(=O)COc1ccc(C(=O)NC2CCCCC2)cc1,i
O=C(Nc1c(-c2ccccc2)nc2ccccn12)c1cc2cc(Br)ccc2oc1=O,41.2%
Cc1ccc(SCCC(=O)Nc2ccc(CC#N)cc2)cc1,i
CCOC(=O)c1cc(C)n(-n2cnnc2)c1C,i
Cc1cc(C)n(S(=O)(=O)N2CCCCC2)n1,i
COc1ccc(C)cc1NC(=S)N1CCN(c2ccc(F)cc2)CC1,i
COc1ccc(CCNC(=O)c2ccccc2N(C)S(C)(=O)=O)cc1,2.3%
O=C(COc1ccc(F)cc1)Nc1sc2c(c1C(=O)NC1CCS(=O)(=O)C1)CCCC2 (stereo not drawn),1.4%
NC(=O)CSc1nnc2n(-c3ccccc3)c(=O)c3c(n12)-c1ccccc1CC31CCCC1,i
CCOC(=O)c1c(NC(=S)NC(=O)c2ccc(F)cc2Cl)sc2c1CCCC2,29.3%
O=C1CC(NCc2ccco2)C(=O)N1c1ccc(Br)cc1 (stereo not drawn),i
COc1ccc(-c2csc(NC(=O)c3c(F)c(F)c(F)c(F)c3F)n2)cc1OC,i
CCCCc1ccc(NS(=O)(=O)c2ccc(OC)c([N+](=O)[O-])c2)cc1,3.3%
Cc1cc(Cl)c(OCCCN2CC(C)OC(C)C2)c(Br)c1 (stereo not drawn),i
Nc1cc(C(=O)O)ccc1N1CCCCC1,i
Cc1cc(C)nc(NS(=O)(=O)c2ccc(Br)cc2)n1,i
CC(Oc1ccccc1)C(=O)Nc1cccc(-c2cn3ccccc3n2)c1 (stereo not drawn),10.0%
O=[N+]([O-])c1cccc(NC(=S)NCc2ccncc2)c1,i
O=C(CCCc1c(-c2ccccn2)[nH]c2ccc(F)cc12)Nc1nccs1,i
O=C(NNC(=S)Nc1ccccc1C(F)(F)F)c1cccnc1,i
O=C(c1ccc(Br)cc1)c1cc([N+](=O)[O-])ccc1N1CCCCC1,7.6%
COc1ccc(C)cc1NC(=O)C(C)(C)Oc1ccc(Cl)cc1,i
CN(C)c1nc(N(C)C)nc(N2CCCCC2)n1,i
O=c1c(-c2cccc(C(F)(F)F)c2)[n+]([O-])c2ccccc2n1O,i
OCCNc1nc(-c2ccccc2)c2cc(Br)ccc2n1,2.4%
Nc1cc(N)nc(SCC(=O)Nc2cccc(C(F)(F)F)c2)n1,i
CCC(C)c1ccc(NC(=O)CC(C)(C)C)cc1 (stereo not drawn),i
CC(C(=O)Nc1nncs1)N1C(=O)c2ccccc2C1=O (stereo not drawn),i
CNCc1cccc(OC)c1OCc1ccc(F)cc1,i
CCSc1ccccc1C(=O)Nc1nnc(CC)s1,i
Cc1ccc(C)c(OCC(=O)Oc2c(C)cc(Br)cc2C)c1,3.1%
CCSC1=C(C#N)C(c2ccccc2)C(C(=O)Nc2ccccc2OC)=C(C)N1 (stereo not drawn),i
Cc1cccc(C)c1OCC(=O)NNC(=O)c1ccoc1C,i
O=C1C2C3C=CC(C3=C3CCCCC3)C2C(=O)N1Cc1ccccc1 (stereo not drawn),2.7%
CCOC(=O)c1ccc2ncc(C(=O)OCC)c(NCC(C)O)c2c1 (stereo not drawn),i
Cc1noc(-c2ccc(OCc3ccccc3)cc2O)c1-c1ccccc1Cl,i
COC(=O)CSc1nc2sc3c(c2c(=O)n1Cc1ccccc1)CCC(C(C)(C)C)C3 (stereo not drawn),i
O=C(Nc1nnc(Cc2ccc(Cl)cc2)s1)c1cccc(F)c1,i
CCOC(=O)c1ccc(NC(=O)C(=O)N2CCOCC2)cc1,i
COc1ccc(C(=O)CC2(O)C(=O)N(C)c3ccc(Br)cc32)cc1 (stereo not drawn),i
COc1ccc(-c2cc(C(F)(F)F)nc(SCC(=O)Nc3cccc(C)n3)n2)cc1OC,i

# Later entries:
SMILES,Mtb growth
Cc1cc(OC(=O)CCCNC(=O)OCc2ccccc2)c2c(-c3ccccc3)cc(=O)oc2c1,i
COc1ccccc1C(=O)Nc1ccc2c(c1)nc(CN1CCN(C(C)=O)CC1)n2C,i
C=CCn1c(Cc2ccc(OC)cc2)nnc1SCC(=O)NCCc1ccccc1,i
CCCCC(=O)Nc1ccc(NC(=O)Cc2ccc(Cl)cc2)cc1OC,i
CCCCc1ccc(NC(=S)NCC2CCCO2)cc1 (stereo not drawn),i
O=C(Cc1cccc2ccccc12)Nc1cccc(C(=O)N2CCOCC2)c1,i
O=C(O)c1ccccc1-c1ccccc1C(=O)NCCc1ccccc1,i
C#CCOc1ccc(/C=C(/C#N)c2ccc(Cl)cc2)cc1OC,i
COc1ccc(Br)cc1C(=O)Nc1ccc(-c2nn3c(C)nnc3s2)cc1,0.8%
COc1ccc(-n2c(-c3ccccc3)n[nH]c2=S)c(OC)c1,i
CN(C(=O)COc1ccc(C(C)(C)C)cc1)C1CCS(=O)(=O)C1 (stereo not drawn),i
O=[n+]1c(CO)c(CO)n([O-])c2ccccc21,2.3%
O=C(CN1CCc2ccccc2C1)n1c2c(c3ccccc31)CCCC2,8.0%
COc1ccc(S(=O)(=O)N2Cc3ccccc3CC2C(=O)Nc2sc3c(c2C#N)CCCC3)cc1 (stereo not drawn),i
Cc1ccc(-c2nn(-c3ccccc3)cc2C(=O)OCc2ccccc2)cc1,4.9%
CCC(C)c1ccc(OCC(=O)Nc2sc3c(c2C(N)=O)CCC(C)C3)cc1 (stereo not drawn),i
CCn1c(SCC(=O)Nc2ccc(Br)cc2)nnc1-c1cc(OC)cc(OC)c1,i

# In the list so far, 18 have bromine:
SMILES,Mtb growth
Cc1nn(C)cc1CNC(=O)Nc1ccc(Br)cc1Cl,i
COC(=O)c1cn(C(=O)c2cc(Br)ccc2Cl)c2ccccc12,0.4%
COC(=O)CN1C(=O)C(=O)c2cc(Br)ccc21,i
COC(=O)Cn1cnc2sc(C)c(-c3ccc(Br)cc3)c2c1=O,i
CCc1ccc(OCC(=O)NCc2ccc(Cl)cc2)c(Br)c1,12.4%
O=C(Nc1cccc(C(=O)Nc2ccc(Br)cc2F)c1)c1ccccc1,i
CCCn1nnc(NC(=O)c2cc(Br)ccc2OC)n1,i
O=C(Nc1ccc(Br)cc1F)C1CCN(S(=O)(=O)c2ccc(F)cc2)CC1,i
O=C(Nc1c(-c2ccccc2)nc2ccccn12)c1cc2cc(Br)ccc2oc1=O,41.2%
O=C1CC(NCc2ccco2)C(=O)N1c1ccc(Br)cc1 (stereo not drawn),i
Cc1cc(Cl)c(OCCCN2CC(C)OC(C)C2)c(Br)c1 (stereo not drawn),i
Cc1cc(C)nc(NS(=O)(=O)c2ccc(Br)cc2)n1,i
O=C(c1ccc(Br)cc1)c1cc([N+](=O)[O-])ccc1N1CCCCC1,7.6%
OCCNc1nc(-c2ccccc2)c2cc(Br)ccc2n1,2.4%
Cc1ccc(C)c(OCC(=O)Oc2c(C)cc(Br)cc2C)c1,3.1%
COc1ccc(C(=O)CC2(O)C(=O)N(C)c3ccc(Br)cc32)cc1 (stereo not drawn),i
COc1ccc(Br)cc1C(=O)Nc1ccc(-c2nn3c(C)nnc3s2)cc1,0.8%
CCn1c(SCC(=O)Nc2ccc(Br)cc2)nnc1-c1cc(OC)cc(OC)c1,i
